Compound activity as filed in PubChem BioAssay.
VDR inhibitor: vitamin D3 receptor (human) inhibition | P11473 | VDR-SRC2-3 peptide fluorescence polarization, 2 h | Potency, µM, without a hit: max response, negative = inhibition, usual class: inhibitors | 400,000 compounds, 0.93% hits | AID 504847; active = well fitted inhibition curve with a large enough effect; inconclusive = small, poorly fitted or top-dose-only effect, or another doubt; inactive = no such curve, though single readings can be large or run the other way; also: series mostly up to about 120 µM
Target sequence (P11473 whole entry, looked up): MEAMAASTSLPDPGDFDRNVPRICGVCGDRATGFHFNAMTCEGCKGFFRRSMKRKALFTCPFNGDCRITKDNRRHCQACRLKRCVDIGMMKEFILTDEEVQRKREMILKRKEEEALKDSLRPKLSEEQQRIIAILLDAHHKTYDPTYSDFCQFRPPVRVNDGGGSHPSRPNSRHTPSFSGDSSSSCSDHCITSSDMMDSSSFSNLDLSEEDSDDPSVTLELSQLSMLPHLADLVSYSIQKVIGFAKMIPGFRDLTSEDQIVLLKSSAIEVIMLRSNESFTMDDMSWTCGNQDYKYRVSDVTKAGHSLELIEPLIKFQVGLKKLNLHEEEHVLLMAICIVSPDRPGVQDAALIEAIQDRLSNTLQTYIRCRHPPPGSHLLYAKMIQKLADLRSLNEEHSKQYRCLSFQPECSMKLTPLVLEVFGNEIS
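FP read-out; VDR + SRC2-3 coactivator peptide; 23 nl compound by pintool; 2 h RT incubation; reagents held at 4 deg C, protected from light.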
The depositor's hits bear a star; ? = inconclusive; & = joins results of further samples. % is scaled to controls: 0 for no effect and ±100 for the full control effect; potency is read from the fitted curve at half-maximal effect.

SMILES	VDR inhibitor
COc1cccc(NS(=O)(=O)c2cc3c(cc2C)N(C(C)=O)CCO3)c1	-3%
Cc1onc(-c2ccccc2)c1C(=O)NCCc1ccc(Cl)cc1	7%
Cc1cc(C)c2cc3c(N)c(C(=O)Nc4c(C)[nH]c(=O)[nH]c4=O)sc3nc2c1	3%
CCOC(=O)C(CCCCP(=O)(c1ccccc1)c1ccccc1)(NC(C)=O)C(=O)OCC	-28%
CCCn1c(-c2ccc(OC)cc2)nc2c(=O)n(C)c(=O)[nH]c21	4%
FC(F)(F)c1cc(Sc2ccccc2)nc(-c2ccccn2)n1	2%
Oc1cccc(NC(=S)Nc2ccc(SC(F)F)cc2)c1	-12%
COc1ccccc1OCc1nc2ccccc2n1Cc1ccccc1	12%
Cc1nn(-c2ccccc2)c2nc(N)c(C#N)c(-c3ccc(C(C)(C)C)cc3)c12	-2%
Cc1cccc(NC(=O)Cn2c(=O)n(CCC(=O)N3CCc4ccccc4C3)c(=O)c3ccccc32)c1	5%
Cc1ccc(N2C(=O)NC(NC(=O)c3ccc(Cl)cc3)(C(F)(F)F)C2=O)cc1 (configuration not stated)	7%
COc1ccc(N(C(=O)c2snc(C(N)=O)c2N)C(C(=O)NCC2CCCO2)c2ccc3ncccc3c2)cc1OC (configuration not stated)	0%
CCc1ccc(CNC(=O)c2cc3c(=O)n(Cc4cccs4)ccc3nc2C)cc1	4%
CCN(CC)C(=O)CSc1nc2ccccc2o1	-7%
C=CCn1c(CCC(O)COCCCCC)n[nH]c1=S (configuration not stated)	7%
COCC(O)CSc1nc(C)[nH]c1[N+](=O)[O-] (configuration not stated)	-12%
O=C(NCCN1CCOCC1)c1nn2c(c1Cl)NC(c1ccccc1)CC2C(F)(F)F (configuration not stated)	?
CC(NC(=O)C1CCCN1S(=O)(=O)c1cccc2cccnc12)c1ccccc1 (configuration not stated)	3%
COC(=O)C1=C[C@@H](C(=O)OC)[C@@H]2C3=C(C(=O)[C@]2(C)NC(=O)c2ccccc2)[C@H](C)n2c(=O)n(C)c(=O)n2[C@@H]3C1	16%
O=C(COC(=O)[C@H](Cc1ccccc1)N1C(=O)c2ccccc2C1=O)Nc1ccc2c(c1)OCO2	-3%
CCCCn1c(=O)cc(C)n(-c2ccccc2)c1=O	13%
CCCCc1cc(=O)oc2cc(C)cc(OC(C)C(=O)NCC3CCC(C(=O)O)CC3)c12 (configuration not stated)	-10%
COc1ccc(Cl)cc1NC(=O)CSc1nnc(COc2ccccc2)n1C	7%
COc1ccccc1NC(=O)C1=C(C)Nc2nnnn2C1c1cccc(C)c1 (configuration not stated)	-2%
CCCCNc1nc(Oc2ccc(=O)n(-c3ccccc3)n2)nc(N(C)C)n1	-2%

(cont.)
SMILES	VDR inhibitor
O=C(O)CCN1C(=O)c2ccc(NC(=O)C(c3ccccc3)c3ccccc3)cc2C1=O	-30%
CN(C)/C=N/c1sc2c(c1C(N)=O)CCCC2	-13%
O=C1C=C(Nc2ccccc2)CC(c2ccccc2)C1 (configuration not stated)	9%
Cc1nc(NC(=O)c2oc3ccccc3c2C)sc1C(=O)N(C)C	6%
O=C(CCC(=O)N1CCOc2ccccc21)NCCN1CCOCC1	7%
CCNC(=S)N/N=C/c1ccc(OCC(=O)Nc2ccc(OC)cc2)c(OC)c1	7%
CSc1ncccc1C(=O)OCc1ccc(C#N)cc1	-14%
CC(C)(C)OC(=O)NCCc1nnc(SCC(N)=O)o1	5%
Cc1c(C)n(C)c2ccc(C(=O)NCCCN3CCCCC3)cc12	-2%&17%
O=C(Nn1cnnc1)c1ccc([N+](=O)[O-])cc1Cl	-10%
Cc1cccc(NC(=O)Nc2ccccn2)c1C	-15%
Cc1noc(C)c1COC(=O)CCc1nc2ccccc2c(=O)[nH]1	-12%
CCN(CCO)c1nc(N2CCCCC2)c2cnn(C)c2n1	-12%
Cc1c(NC(=O)CSc2nc3ccccc3[nH]2)c(=O)n(-c2ccccc2)n1C	-13%
COc1ccc(NC(=O)c2cccc(Cn3cc(Br)c([N+](=O)[O-])n3)c2)c(C)c1	?
O=C(Nc1cccc(S(=O)(=O)N2CCOCC2)c1)c1ccc(=O)[nH]c1	-16%
COc1ccc(-c2cn[nH]c2-c2ccc(O)cc2O)cc1	-8%
CCCn1nc(C(=O)Nc2cccc(S(=O)(=O)N(C)c3ccccc3)c2)c2ccccc2c1=O	15%
O=C(Nc1ccc2c(c1)OCCO2)c1ccc(S(=O)(=O)N2CCCCC2)cc1	8%
CCn1cc(C(=O)OCC(=O)c2cc(C)n(-c3ccccc3F)c2C)c(=O)c2ccc(C)nc21	?
CC(=O)c1cc(C(=O)Nc2ccccc2C(=O)O)oc1C	13%
O=C1CCN(S(=O)(=O)c2ccc(Cl)cc2)CCN1	-9%
COCC(C)NC(=O)CCSc1nc(-c2ccc(OC)cc2)cc(C(F)(F)F)n1 (configuration not stated)	-15%
CSc1nc2c(c(=O)[nH]1)C(c1ccncc1)C(C(=O)OC(C)C)=C(C)N2 (configuration not stated)	0%
CCN(Cc1ccccc1)c1ncnc2c1nnn2C	-5%

Next section.
SMILES	VDR inhibitor
Cc1ccc(S(=O)(=O)c2nc(-c3cccs3)oc2N2CCCCC2)cc1	28%
COc1ccc(N/C=C2\CCOC2=O)cc1	14%
Cn1cnnc1SCC(=O)NCc1cccc(C(F)(F)F)c1	-16%
COC(=O)c1cn(CCOc2ccccc2F)c2ccccc12	4%
CCN(CC(=O)NCc1ccc(F)cc1)C(=O)c1cccnc1SC	8%
O=C1CCC([N+](=O)[O-])C(c2cccc3ccccc23)N1 (configuration not stated)	-2%
CCOC(=O)C(=CNc1ccc(NC2=NCC(C)(C)S2)cc1)C(=O)OCC	2%
CC(C)n1cc2c(c1-c1ccccc1Cl)c(=O)n(C)c(=O)n2C	-9%
C[C@@H](C(=O)NC1CCCC1)N1C(=O)N2CCc3c([nH]c4ccccc34)[C@@]2(C)C1=O	-25%
COC(=O)COc1ccc(C2NC(=O)NC(c3ccccc3)=C2C(C)=O)cc1OC (configuration not stated)	7%
COc1ccc(CCNC(=O)C(=O)NCCC2CCCCN2S(=O)(=O)c2ccccc2)cc1 (configuration not stated)	-11%
CC(=O)c1cccc(NC(=O)CCOc2ccccc2)c1	-7%
CCNc1cc(Cl)nc(SC)n1	-1%
Cc1ccc(CNS(=O)(=O)c2c(C)n(C)c(=O)n(C)c2=O)cc1	8%
Cc1cccc(OCC(=O)OCC(=O)c2c(N)n(C)c(=O)n(C)c2=O)c1C	1%
CCN(c1cccc(C)c1)S(=O)(=O)c1ccc2[nH]cc(C(=O)NCCCOC)c(=O)c2c1	16%
O=C(COC(=O)c1n[nH]c2ccccc12)Nc1ccc(Cl)cc1[N+](=O)[O-]	5%
Cc1c(NC(=O)CSCc2ccc(Br)cc2)c(=O)n(-c2ccccc2)n1C	5%
COc1ccc(OC)c(-c2cc(C(=O)Nc3cccc(Cl)c3C)no2)c1	15%
CC(C)CC(NC(N)=O)C(=O)Nc1ccc(Cl)c(Cl)c1 (configuration not stated)	-19%
CC(=O)c1cnc2sccn2c1=O	-4%
Cc1ccc(-c2nnc(N3CCN(C(=O)COc4cccc(C)c4)CC3)c3ccccc23)cc1	-11%
O=C(c1ccc2c(c1)OCO2)N1CCC2(CC1)Oc1ccc(F)cc1C(=O)C21CC(c2ccc(Cl)cc2)=NO1 (configuration not stated)	-5%
CCOC(=O)c1cnc(Nc2nc3ccccc3o2)nc1CSc1ncccn1	-11%
Cc1c(CC(=O)O)c(=O)oc2cc3occ(-c4ccccc4)c3cc12	-1%

5 entries already listed, ordered by the number in VDR inhibitor, smallest number first:
SMILES	VDR inhibitor
CCOC(=O)C(CCCCP(=O)(c1ccccc1)c1ccccc1)(NC(C)=O)C(=O)OCC	-28%
CCCCNc1nc(Oc2ccc(=O)n(-c3ccccc3)n2)nc(N(C)C)n1	-2%
CC(C)(C)OC(=O)NCCc1nnc(SCC(N)=O)o1	5%
COc1ccc(Cl)cc1NC(=O)CSc1nnc(COc2ccccc2)n1C	7%
COc1ccc(OC)c(-c2cc(C(=O)Nc3cccc(Cl)c3C)no2)c1	15%

Reformatted with each value named: part of the list above.
Cc1ccc(CNS(=O)(=O)c2c(C)n(C)c(=O)n(C)c2=O)cc1
  VDR inhibitor: 8%
Cc1cccc(OCC(=O)OCC(=O)c2c(N)n(C)c(=O)n(C)c2=O)c1C
  VDR inhibitor: 1%
CCN(c1cccc(C)c1)S(=O)(=O)c1ccc2[nH]cc(C(=O)NCCCOC)c(=O)c2c1
  VDR inhibitor: 16%

Next section:
SMILES	VDR inhibitor
CC(C)c1ccc(/C=C2\SC(=O)N(CC(=O)NCCCn3ccnc3)C2=O)cc1	-14%
COc1ccccc1-c1nccc(NCc2cccc(C)c2)n1	-1%
C=CCSc1nnc(NC(=O)c2ccc(S(=O)(=O)NCC3CCCO3)cc2)s1 (configuration not stated)	-9%
COc1ccc(S(=O)(=O)NC(C)C(=O)NCc2ccncc2)cc1Cl (configuration not stated)	-3%
COC(=O)C1=C(C(=O)OC)SC(=C2C(=S)C(C)(C)N(C(=O)CC(C)C)c3ccccc32)S1	?
COC(C[C@@H](O)C[C@H](O)[C@H](C)OCc1ccccc1)OC	-15%
COc1ccc(S(=O)(=O)N(CCC#N)Cc2ccco2)cc1OC	-10%
COc1ccc(-c2c(C)oc3c(CN4CCCC(C)C4)c(O)ccc3c2=O)cc1OC (configuration not stated)	4%
Cc1ccc(Nc2nnc(SC3CCOC3=O)s2)c(C)c1 (configuration not stated)	5%
CC(C)CCNc1cc(=O)n(C)c(=O)n1C	11%
N[C@@H](Cc1ccc(O)cc1)C(=O)O	-1%
Cc1cc2nc(-c3ccc(SCC(=O)Nc4nccs4)nc3)[nH]c2cc1C	?
COC(=O)c1cc(C(=O)OC)cc(N2C(=O)CN=C2Nc2nc(C)cc(C)n2)c1	-15%
NCC12CC3CC(C1)CC(c1ccc(Br)cc1)(C3)C2	7%
CC1CCc2nc3ncn(Cc4ccccc4C#N)c(=O)c3cc2C1 (configuration not stated)	9%
Cc1cc2c(c(N)n1)c(=O)oc1ccccc12	-5%
CC(=O)NC(C(=O)N1CCC(c2nc3ccccc3s2)CC1)C(C)C (configuration not stated)	-3%
O=C(c1ccc(NS(=O)(=O)c2ccccc2)cc1)N1CCCC1	0%
COCCCNC(=O)c1ccc(N(C)S(=O)(=O)c2ccc(OC)cc2)cc1	-7%
CC1=C(C(=O)N2CCCC(C(=O)c3cccc(C(F)(F)F)c3)C2)OCCO1 (configuration not stated)	-4%
O=C(Cc1c(C(=O)O)[nH]c2ccccc12)Nc1ccc2c(c1)OCO2	-7%
CC(=O)c1nn(-c2ccccc2)cc1C(=O)c1ccc(Br)cc1	-13%
O=C1OCc2cc(-n3cccc3)ccc21	-5%
COc1ccc(S(=O)(=O)N2CCOC23CCN(C(=O)c2ccccc2Br)CC3)cc1	-14%
COc1ccc2nc3sc(C(=O)N4CCN(c5ccccc5)CC4)cc3cc2c1	3%

Quoted at random: three compounds from above.
SMILES	VDR inhibitor
Cc1ccc(Nc2nnc(SC3CCOC3=O)s2)c(C)c1 (configuration not stated)	5%
COc1ccc(S(=O)(=O)N2CCOC23CCN(C(=O)c2ccccc2Br)CC3)cc1	-14%
C=CCSc1nnc(NC(=O)c2ccc(S(=O)(=O)NCC3CCCO3)cc2)s1 (configuration not stated)	-9%

Next results follow:
SMILES	VDR inhibitor
Cc1c(C(c2ccc([N+](=O)[O-])cc2)c2c(C)n(C)n(-c3ccccc3)c2=O)c(=O)n(-c2ccccc2)n1C	1%
COc1cccc(OC)c1C(=O)NC(=O)NNc1cc(C(F)(F)F)cc(C)n1	5%
CC(C)(C)c1ccc(-c2nc3[nH]c(=O)cc(NC(=O)c4ccco4)n3n2)cc1	-8%
CCCC1=Nc2cc(C(=O)NC3CCCCC3)ccc2Sc2ccc(C)cc21	-12%
COc1ccc2cc(-c3cc(C(=O)OCC(=O)NC4CCS(=O)(=O)C4)c4ccccc4n3)ccc2c1 (configuration not stated)	-1%
CCCc1cc2c(=O)c(-c3ccccn3)coc2cc1OC	24%
Cn1c(N)c(C(=O)CSc2nc(N)cc(N)n2)c(=O)n(C)c1=O	?
O=C1c2cccnc2C(=O)N1CNc1ccc(Cl)cc1	-16%
CN(Cc1ccccc1F)C(=O)c1ccc2c(=O)n3c(nc2c1)CCC3	-9%
Cc1cccc(N2CCN(C(=O)Cc3ccc(-n4c(=O)[nH]c5ccsc5c4=O)cc3)CC2)c1C	-11%
CN(Cc1ccco1)c1nc(-c2ccc3c(c2)OCO3)nc2ccccc12	?
Cc1cccc(NC(=O)CN2C(=O)CC(c3ccccc3)Sc3ccccc32)c1 (configuration not stated)	-5%
COc1ccccc1OCC(=O)Nc1ccc(S(=O)(=O)Nc2onc(C)c2C)cc1	-9%
Cc1cccc(C(=O)Oc2ccc(/C=N/NC(=O)c3cc(O)cc(O)c3)cc2)c1	-2%
O=C(NC1CCCCCC1)c1ccc([N+](=O)[O-])s1	-6%
COCCN1C(=O)C(O)=C(C(=O)c2ccco2)C1c1cccc(Oc2ccccc2)c1 (configuration not stated)	2%
COc1ccc(NS(=O)(=O)c2c(C(=O)N3CCCCCC3)c(C)n(C)c2C)cc1	-15%
O=C(Nc1cccc(NC(=O)C2C3CC4OC(=O)C2C4C3)c1)c1ccccc1 (configuration not stated)	-14%
N#Cc1cccc(Cn2cc(C(F)(F)F)ccc2=O)c1	?
O=C(COC(=O)c1sc2ccccc2c1Cl)Nc1ncc(Cl)cc1Cl	19%
O=C(c1cc(-c2ccc(Br)cc2)on1)N1CCc2ccccc2C1	?
N=c1sccn1CC(=O)Nc1cc(Cl)ccc1Oc1ccccc1	-8%
O=C(NNC(=O)C12CC3CC(CC(Br)(C3)C1)C2)c1ccccc1F	3%
CCCCc1c(O)nc(SCC(=O)N2CCCCC2)[nH]c1=O	-19%
CCN(CC)CCC(=O)N1c2ccccc2Sc2ccc(C(F)(F)F)cc21	28µM*

An excerpt; rates above refer to the full screens.
